High-throughput results (PubChem)
GIV-Gai inh – GIV-Galpha-i interaction inhibition; Galpha-i3/FITC-GIV peptide fluorescence polarization, 90 min; stronger effect = lower value; scaled: aluminum fluoride 0%, vehicle 100%; 210,000 tested, 0.42% active; P08753; percent of control (FP), % (concentration not given with the values);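 active = replicate mean at 85% of control or lower, very high polarization wells dropped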;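 note: wells of about 15 µL received 100 nL stock; the first replicate is given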
Target sequence (P08753 whole entry, looked up): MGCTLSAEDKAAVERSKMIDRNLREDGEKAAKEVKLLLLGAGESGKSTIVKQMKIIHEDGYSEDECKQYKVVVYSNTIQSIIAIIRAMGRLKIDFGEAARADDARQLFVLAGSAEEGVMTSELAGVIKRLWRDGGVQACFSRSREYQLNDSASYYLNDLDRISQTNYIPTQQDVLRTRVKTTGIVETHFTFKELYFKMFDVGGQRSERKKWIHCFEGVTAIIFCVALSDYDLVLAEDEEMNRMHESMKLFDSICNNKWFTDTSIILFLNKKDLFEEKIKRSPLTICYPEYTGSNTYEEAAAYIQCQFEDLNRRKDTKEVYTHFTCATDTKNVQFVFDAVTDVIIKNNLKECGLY
HCMV NEC inh – disrupts HCMV UL50-UL53 complex binding | AID 1918969 | 190,000 tested, 0.15% active | inhibition, % (concentration not given with the values) | HTRF UL50-UL53 interaction, normalized percent inhibition;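 active = both replicates at 50% or more, plus weaker picks with an unusually low signal ratio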;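 note: stock transfer was 100 nL into about 20 µL; 0% = negative control wells and 100% = wells with untagged competitor protein; inactives centre near -12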
Sa growth 42C – S. aureus growth inhibition | S. aureus RN4220 growth, OD600, 20 h, 42 °C; stronger effect = lower value | relative growth, % (test concentration not listed) | 170,000 tested, 0.53% active;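 active = growth at 42 °C up to 50% and 20 or more points under that at 30 °C, or under 10% at both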;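 note: 300 nL library stock went into each well; scaled to the means of positive and negative controls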
Sa growth 42C second temp – second read-out of Sa growth 42C, no call of its own (marks repeat the call); relative growth, %; measured here: growth at 30 °C;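 optical density after 20 h as mean of two plates; 100% = untreated growth and lower means inhibition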
An asterisk follows results filed as active; . = no result given; & = joins results of further samples.

SMILES | GIV-Gai inh | HCMV NEC inh | Sa growth 42C | Sa growth 42C second temp
CC1(C)C(=O)N(CC(=O)NC2CCCCC2)c2ccc(S(=O)(=O)N3CCCC3)cc21 | 107 | -35 | . | .
CC(C)C(NC(=O)c1ccccc1)c1nnc(SCC(=O)Nc2nccs2)n1C (stereo not drawn) | 105 | 0 | 95 | 95
C=CCc1cc(OC)ccc1O | . | -3 | 94 | 92
Oc1ccc(/C=N/NC(=S)Nc2ccc(Cl)cc2Cl)c(O)c1O | . | -4 | 71 | 60
Cc1ccc(CC(C#N)Sc2nnc(C)n2Cc2ccccc2)cc1 (stereo not drawn) | . | -28 | 78 | 80
CN(CCc1noc(COc2ccccc2)n1)C(=O)Nc1cccc(Cl)c1 | 112 | -18 | . | .
O=S(=O)(c1ccccc1)c1nnn2c1nc(NCc1ccccc1)c1sccc12 | 104 | . | 106 | 84
CCOc1ccc(N2C(=O)N(Cc3cccc(Cl)c3)C3CS(=O)(=O)CC32)cc1 (stereo not drawn) | 98 | -17 | . | .
O=C(CSc1cc(Cl)ccc1Cl)NCCN1CCOCC1 | . | -30 | 123 | 85
CSC1=C(C#N)C(c2ccccc2Cl)C(C(=O)c2ccccc2)=C(C)N1 (stereo not drawn) | . | -19 | 71 | 84
COCCNC(=O)c1ccc(NC(=O)N2CCCCc3ccccc32)cc1 | 98 | . | 82 | 89
CCCCc1nnc2sc(COc3ccc(C)c(C)c3)nn12 | 105 | 6 | . | .
O=C(CSCc1ccco1)c1ccc(F)cc1 | . | -15 | 91 | 90
CCc1ccc(-c2nc(-c3ccc4c(c3)[nH]c(=O)c(=O)n4C(C)C)no2)cc1 | 103 | -24 | . | .
O=C(OCC(=O)N1CCN(C(=O)c2ccco2)CC1)c1ccc2c(=O)n3c(nc2c1)CCC3 | . | 2 | 104 | 105
c1ccc2c(c1)c(NCC1CCCO1)nn1nnnc21 (stereo not drawn) | 102 | -13 | 97 | 90
CCCN(CCC)C(=O)c1c[nH]c2ccc(S(=O)(=O)N(C)c3ccc(OCC)cc3)cc2c1=O | 105 | . | 135 | 83
CC(CC(=O)O)CC(=O)Nc1cc(Cl)cc(Cl)c1 (stereo not drawn) | 100 | 4 | 101 | 86
COC(=O)Cn1c(=NC(=O)C2CC2)sc2c(C)cc(C)cc21 | 100 | -34 | 83 | 81
Cc1cc(C)n2nc(C(C)(C)C)c(Cl)c2n1 | 102 | -17 | 110 | 81
CC(C)C(=O)Nc1cccc2nsnc12 | . | -77 | 1.2* | -0.4*
CCNc1nc(NCC)n2c(SCC(=O)N(CC)C3CCCCC3)nnc2n1 | . | -25 | 88 | 83
Cc1sc2ncn(CC(=O)N3CCN(c4ccccc4)CC3)c(=O)c2c1S(=O)(=O)N1CCC(C)CC1 | 103 | 1 | 104 | 97
O=C(C1CCC1)N1CCC2(CC1)Nc1ccccc1-n1cccc12 | 106 | -38 | . | .
c1ccc2c(c1)ncn2CC1CCCCC1 | 104 | -3 | 123 | 99
CCc1c(C)[nH]c(N)nc1=S | . | -17 | 43 | 40
COc1cc(-c2nnc(SCC(=O)Oc3ccc(C)cc3C)o2)cc(OC)c1OC | 106 | -24 | 97 | 88
CC(Sc1nnc2ccc3ccccc3n12)C(=O)Nc1ccc(F)cc1 (stereo not drawn) | 96 | 12 | . | .
CCC(=O)Nc1ccc(NC(=O)CC)cc1 | 98 | -3 | 96 | 108
COc1cc(/C=C/c2nc(C#N)c(N3CCC(C)CC3)o2)cc(OC)c1OC | 101 | 0 | 87 | 76
CCCN(CCC)CCCNC(=O)c1cn(C)c2ccc(S(=O)(=O)N3CCOCC3)cc2c1=O | 104 | -32 | 95 | 97
CCN1C(=O)/C(=C\c2cc(C)n(CC(F)(F)F)c2C)SC1=S | . | -22 | 116 | 85
CCN1C(=O)CCS(=O)(=O)c2ccccc21 | 101 | . | 107 | 90
CC(C)Cc1cc(-c2nn3c(COc4ccc(Br)cc4)nnc3s2)n[nH]1 | 103 | -19 | . | .
Cc1cc(-c2cn(/N=C/c3ccc(Cl)cc3Cl)c(N)n2)c(C)s1 | 111 | . | 117 | 65
Cc1cc(Nc2ccc(NS(=O)(=O)c3ccc4c(c3)OCCO4)cc2)nc(NC2CCCCC2)n1 | 104 | -13 | . | .
COC(=O)c1ccc(NC(=O)N2CCN(c3nnc(C)c4c(C)n(-c5ccccc5)nc34)CC2)cc1 | 103 | . | 81 | 87
OC1COC(Oc2ccccc2)C(O)C1O (stereo not drawn) | 103 | -5 | 100 | 105
CCOC(=O)c1cnc2c(C)c(Cl)ccc2c1NCCN(C)C | 107 | -30 | 88 | 78
CCc1cccc(O[C@@H]2O[C@@H]3COC(c4ccccc4)O[C@H]3[C@H](O)[C@H]2NC(C)=O)c1 (stereo partly drawn) | 99 | . | 98 | 59
O=C(Nc1ccccc1C(=O)OCn1nnc2ccccc2c1=O)c1ccco1 | . | -16 | 84 | 96
Cc1ccc2[nH]c(=O)c3cc(C(=O)NCCCN4CCN(c5ccc(F)cc5)CC4)sc3c2c1 | 105 | . | 102 | 83
COC(=O)c1ccc(CO/N=C/c2ccc(OC)cc2)o1 | . | -15 | 86 | 85
Cc1cc(C)c2c(-n3cccc3)nn(CCCC(=O)Nc3ccc(Cl)cc3C)c2n1 | 106 | -19 | . | .
Nc1ccccc1C12CC3CC(CC(C3)C1)C2 | . | -13 | 110 | 94
COc1ccc(OCc2nc3c4c(-c5ccccc5)c(-c5ccccc5)oc4ncn3n2)cc1 | 101 | -11 | 103 | 92
O=C1/C(=C/c2ccccn2)CC(c2ccccc2)C/C1=C\c1ccccn1 (stereo not drawn) | 104 | . | 79 | 50
Cc1ccc(-c2noc(-c3cn(Cc4ccc(N)cc4)cn3)n2)cc1 | 103 | -28 | . | .
CC1CCN(S(=O)(=O)c2ccc3c(c2)CCC(=O)N3CC(=O)N(C)C2CCCCC2)CC1 | 106 | -31 | . | .
CCc1ccc(-n2nc(C)c3c(C)cc(=O)n(CC(=O)Nc4ccccc4C(=O)OC)c32)cc1 | 101 | . | 102 | 90

Next structures follow:
SMILES | GIV-Gai inh | HCMV NEC inh | Sa growth 42C | Sa growth 42C second temp
CCn1c(=O)c2c(n(Cc3ccccc3)c1=O)NC1=C(C(=O)CCC1)C2c1ccc(OC)cc1 (stereo not drawn) | . | -29 | 90 | 66
COc1ccccc1C1OC(=O)C[C@@H]1C(=O)Nc1nncs1 (stereo partly drawn) | 100 | -36 | 92 | 89
CCc1ccc(NC(=O)C(C)Sc2ncnc3ccccc23)cc1 (stereo not drawn) | . | -7 | 123 | 94
CCCCC(=O)c1c(O)c2ccccc2oc1=O | 108 | 6 | 52 | 47
O=C(Nc1ccc(S(=O)(=O)Nc2ncccn2)cc1)C1CC(=O)N(c2ccccc2)C1 (stereo not drawn) | 106 | . | 114 | 75
O=C(NCc1ccccc1)c1cc2c(Cl)ccc3c2n1CCO3 | 106 | -12 | . | .
O=C1COc2ccc(S(=O)(=O)N3CCCC(C(=O)NC4CC4)C3)cc2N1 (stereo not drawn) | 105 | -20 | . | .
CC(C)(C)SC(C(=O)N1CCOCC1)c1ccc(Br)cc1 (stereo not drawn) | . | -10 | 115 | 93
O=C(NCc1ccc(Cl)cc1)c1ccc2c(c1)NC(=O)C(CS(=O)(=O)Cc1ccccc1Cl)N2 (stereo not drawn) | 111 | . | 92 | 87
CN(C)Cc1ccc(CNCc2cnn(-c3ccccc3)n2)cc1 | . | -16 | 102 | 87
CCn1cc(C(=O)N2CCCCC2C)c(=O)c2ccc(C)nc21 (stereo not drawn) | . | -8 | 90 | 92
COc1ccc(NC(=O)c2ccccc2C(F)(F)F)cc1OC1CCCC1 | 101 | -29 | 115 | 88
Cc1cccc(C(=O)OC(C)CN2C(C)CCCC2C)c1 (stereo not drawn) | 101 | -21 | 99 | 80
O=C(NC1CCCC1)N1CCCC1c1ccccc1Cl (stereo not drawn) | 100 | 8 | . | .
c1cc2nc3c(nc2c2nonc12)CCCC3 | 104 | -83 | 85 | 74
CCn1ncc(C2=NOC(C(=O)NCc3ccccc3)C2)c1C (stereo not drawn) | 102 | -1 | 108 | 94
COc1cc(OC)cc(C(=O)c2c(C)c(C#N)c3ccccn23)c1 | . | 5 | 100 | 84
CC(C)(C)NC(=O)CSc1nc2ccccc2[nH]1 | 98 | . | 106 | 85
O=C(c1ccccc1)N(Cc1nc2ccccc2c(=O)[nH]1)C1CCCC1 | 98 | 2 | 91 | 78
CCC(Sc1nc2ccccc2c2nc(C)nn12)C(=O)Nc1ccc(F)cc1 (stereo not drawn) | 101 | 2 | 100 | 83
COc1ccc(C(=O)Nc2nc(-c3ccc(F)cc3)ns2)cc1 | 101 | -5 | . | .
Cn1c(-c2ccccc2O)n[nH]c1=S | 109 | -5 | 87 | 90
CC1CCCN(C(=O)Cc2noc3ccccc23)C1 (stereo not drawn) | 106&106 | -26&-11 | 91 | 83
CN1CCN(C(=O)c2ccc(Cn3c(=O)c4cccn4c4cccnc43)cc2)CC1 | 104 | -9 | . | .
C=CCNC1(C)CCS(=O)(=O)C1 (stereo not drawn) | . | 19 | 97 | 100
C=C(C)CSc1nc2sc3c(c2c(=O)n1CC(=C)C)CC(C)(C)OC3 | 102&100 | -27&-14 | . | .
CCN(CC)C(=O)Cn1c(=O)n(-c2ccc(Cl)cc2)c(=O)c2c3c(sc21)CCC3 | 104 | 2 | 105 | 89
COc1ccc(CC(=O)N2CCc3c([nH]c4ccccc34)C2c2ccc(SC)cc2)cc1 (stereo not drawn) | 101 | . | 89 | 98
CCOc1nc(NC(=O)NS(=O)(=O)Oc2ccccc2)nc(-c2ccccc2)n1 | 105 | -7 | 71 | 86
O=C(COc1ccccc1F)Nc1ccc2oc(-c3ccccc3F)nc2c1 | 109 | -54 | . | .

Some of these compounds in order of molar mass, rising.
SMILES | GIV-Gai inh | HCMV NEC inh | Sa growth 42C | Sa growth 42C second temp
C=CCNC1(C)CCS(=O)(=O)C1 (stereo not drawn) | . | 19 | 97 | 100
Cn1c(-c2ccccc2O)n[nH]c1=S | 109 | -5 | 87 | 90
c1cc2nc3c(nc2c2nonc12)CCCC3 | 104 | -83 | 85 | 74
CC1CCCN(C(=O)Cc2noc3ccccc23)C1 (stereo not drawn) | 106&106 | -26&-11 | 91 | 83
CC(C)(C)NC(=O)CSc1nc2ccccc2[nH]1 | 98 | . | 106 | 85
Cc1cccc(C(=O)OC(C)CN2C(C)CCCC2C)c1 (stereo not drawn) | 101 | -21 | 99 | 80
O=C(NC1CCCC1)N1CCCC1c1ccccc1Cl (stereo not drawn) | 100 | 8 | . | .
CCn1ncc(C2=NOC(C(=O)NCc3ccccc3)C2)c1C (stereo not drawn) | 102 | -1 | 108 | 94
CCn1cc(C(=O)N2CCCCC2C)c(=O)c2ccc(C)nc21 (stereo not drawn) | . | -8 | 90 | 92
COc1cc(OC)cc(C(=O)c2c(C)c(C#N)c3ccccn23)c1 | . | 5 | 100 | 84
COc1ccc(C(=O)Nc2nc(-c3ccc(F)cc3)ns2)cc1 | 101 | -5 | . | .
O=C(c1ccccc1)N(Cc1nc2ccccc2c(=O)[nH]1)C1CCCC1 | 98 | 2 | 91 | 78
C=C(C)CSc1nc2sc3c(c2c(=O)n1CC(=C)C)CC(C)(C)OC3 | 102&100 | -27&-14 | . | .
COc1ccc(NC(=O)c2ccccc2C(F)(F)F)cc1OC1CCCC1 | 101 | -29 | 115 | 88
O=C(COc1ccccc1F)Nc1ccc2oc(-c3ccccc3F)nc2c1 | 109 | -54 | . | .
CCC(Sc1nc2ccccc2c2nc(C)nn12)C(=O)Nc1ccc(F)cc1 (stereo not drawn) | 101 | 2 | 100 | 83
CN1CCN(C(=O)c2ccc(Cn3c(=O)c4cccn4c4cccnc43)cc2)CC1 | 104 | -9 | . | .
COc1ccc(CC(=O)N2CCc3c([nH]c4ccccc34)C2c2ccc(SC)cc2)cc1 (stereo not drawn) | 101 | . | 89 | 98
O=C(NCc1ccc(Cl)cc1)c1ccc2c(c1)NC(=O)C(CS(=O)(=O)Cc1ccccc1Cl)N2 (stereo not drawn) | 111 | . | 92 | 87

Next part
SMILES | GIV-Gai inh | HCMV NEC inh | Sa growth 42C | Sa growth 42C second temp
OCc1nc(-c2ccc(C(F)(F)F)cc2)cs1 | 102 | -4 | 117 | 99
CCCN(CC1CC1)C(=S)Nc1ccccc1OC | 103 | -5 | 100 | 98
CCNC(=O)Nc1n[nH]c(-c2ccccc2)n1 | . | -9 | 95 | 77
CCNc1nc(NCC)n2c(SCC(=O)NC34CC5CC(CC(C5)C3)C4)nnc2n1 | . | -31 | 101 | 92
Cc1ccccc1C(=O)NC1CCN(Cc2nnnn2C2CCCC2)CC1 | 102 | 7 | 96 | 107
Cc1cccn2c(=O)c3cc(C(=O)N4CC(C)OC(C)C4)n(C)c3nc12 (stereo not drawn) | 101 | -50 | 101 | 100
O=C(CCc1nc2ccccc2[nH]1)N1CCC(Cc2ccccc2)CC1 | 101&96 | 5&-15 | 104 | 77
CCOc1ccc(Cn2c(CNS(=O)(=O)c3ccc(C(C)(C)C)cc3)nc3cccnc32)cc1 | 111 | . | 89 | 85
CN(C)n1cccc1C=N/C(C#N)=C(\N)C#N | 100 | -8 | 103 | 86
COc1ccc(S(=O)(=O)c2c(C(=O)c3ccc(C)c(C)c3)cnc3ccc(C)cc23)cc1 | 106 | -21 | 120 | 98
OC(C#Cc1ccccc1)c1cccs1 (stereo not drawn) | 125 | -4 | 93 | 101

This is a random part of the collection. About 0.85% of those tested had a hit in this group.
